NPYLR7 agonist = activates Aedes aegypti NPYLR7 receptor; HEK293T NPYLR7/Galpha15, GCaMP6s calcium fluorescence; activation, % at 10 µM; hit rate 0.15% among 270,000; AID 1259423; in the data active = activation above about 40%;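 also: 0% = vehicle and 100% = reference agonist at the receptor; some compounds past the cut are filed as inactive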
NPYLR7 agonist max-min = further read-out of NPYLR7 agonist, marked with its call; activation, %; measured here: Max-Min RFU normalised activation; some inactives read as strong as hits;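 span of the calcium signal over five minutes; 0% = vehicle and 100% = native peptide agonist; compound fluorescence can raise it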
Numbers without * were called inactive; & = joins results of further samples.

The line under a structure holds: NPYLR7 agonist	NPYLR7 agonist max-min
1) CS(=O)(=O)c1ccc(-n2ccnc2-c2ccccn2)cc1
  4	2
2) O=C1COc2ccc(CC(=O)N3CCNCC3C(=O)NC3CC3)cc2N1 (stereo unspecified)
  2	-4
3) C#CCn1c(=NC(=O)c2cc(C)no2)sc2cc(C)ccc21
  9	11
4) Cn1nc(C(=O)N2CCCC(Nc3ccc(F)c(F)c3)C2)ccc1=O (stereo unspecified)
  15	13
5) CCCc1ccc2oc(C(=O)N(C)Cc3nccn3C)c(C)c2c1
  7	-1
6) COCCCn1ccc(NC(=O)N2CCC(c3noc(C)n3)CC2)n1
  -2	17
7) O=C(c1ccccc1Br)N1CCN(c2nc(Cc3ccccc3)nc3c2cnn3-c2ccccc2)CC1
  2	3
8) CC(C)(C)C1CCC2(CC1)NC(CO)(CO)CO2 (stereo unspecified)
  5	5
9) CCc1nc2ccc(C(=O)NCc3ccccc3OC)cn2c1N(C=O)CCC(C)C
  -5	-9
10) Cc1nc(C2CC2)ncc1C(=O)NC1CC(=O)N(Cc2cccc(F)c2)C1 (stereo unspecified)
  -1	-5
11) Cc1nc2n(n1)C(=O)C(C(c1ccccc1)N1CCC(C)CC1)S2 (stereo unspecified)
  7	2
12) COC(=O)c1ccccc1NC(=O)N1CC(=O)N2CCc3ccc(Cl)cc3C2C1 (stereo unspecified)
  16	19
13) CCCc1cc(=O)oc2cc(OC(C)C(C)=O)c(Cl)cc12 (stereo unspecified)
  -2	-2
14) CC(C)n1cc(CN2CCC(CNC(=O)C3CCCCC3)C2)cn1 (stereo unspecified)
  -3	0
15) Cc1ccccc1OCC(=O)NNC(=O)C(C(C)C)N1C(=O)c2ccccc2C1=O (stereo unspecified)
  -1	-7
16) CCCCC(=O)N1c2ccccc2N=C2CC(C)(C)CC(=O)C2C1c1cccc([N+](=O)[O-])c1 (stereo unspecified)
  -10	-20
17) COc1cccc(-c2nc(OCC(C)C)nn2-c2ccc(NC(=O)c3cccc([N+](=O)[O-])c3)cc2)c1
  3	10
18) CCOc1cccc2c1OC[C@@H]1CN(CC)C(=O)CCN(C(=O)c3ccccc3OC)[C@H]21
  23	32
19) COc1cccc(-c2cccc(NC(=O)C3CCN(CCCn4cccn4)CC3)c2)c1
  6	3
20) O=C(c1cccc(C(F)(F)F)c1)C1CCCN(C(=O)c2scc3c2OCCO3)C1 (stereo unspecified)
  9	6
21) CCN(CC)C(=O)C(NC(=O)c1ccc(F)cc1)C1CCN(S(=O)(=O)c2ccc(C)cc2)CC1 (stereo unspecified)
  -2	-1
22) O=C1C(=Cc2ccc(F)cc2)NC(=S)N1Cc1ccco1
  1	0
23) CC(C)(C)C1C=C(Sc2ccccc2)C(=O)O1 (stereo unspecified)
  -5	1
24) O=[N+]([O-])c1ccc(SCc2csc(Cc3ccc(Cl)c(Cl)c3)n2)nc1
  18	27
25) Cn1c(C(F)(F)F)nc2c(=O)oc3ccccc3c21
  5	3
26) CCCCCC(=O)N(CCCOC)CC(=O)Nc1cc(C(C)(C)C)nn1-c1cccc(C)c1
  4	-1
27) CCCCN(C(=O)CCl)c1c(N)n(CCC)c(=O)[nH]c1=O
  -6	-12
28) CC(NC(=O)C1CCCN1c1ncc(C(F)(F)F)cc1Cl)c1ccccc1 (stereo unspecified)
  8	3
29) COc1cccc(-c2ccc(NC(=O)C3CCCN3S(C)(=O)=O)cc2)c1 (stereo unspecified)
  6	3
30) COCCNC(=O)c1nn(-c2cccc(Cl)c2)c(=O)n(Cc2cccc(F)c2)c1=O
  -5	-6

An excerpt of these results, as a markdown table.
| cpd | smiles | NPYLR7 agonist | NPYLR7 agonist max-min |
| --- | --- | --- | --- |
| 21 | CCN(CC)C(=O)C(NC(=O)c1ccc(F)cc1)C1CCN(S(=O)(=O)c2ccc(C)cc2)CC1 (stereo unspecified) | -2 | -1 |
| 23 | CC(C)(C)C1C=C(Sc2ccccc2)C(=O)O1 (stereo unspecified) | -5 | 1 |

(cont.)
The line under a structure holds: NPYLR7 agonist	NPYLR7 agonist max-min
31) CCN(CC(=O)Nc1cc(-c2ccccc2)nn1-c1ccc(F)cc1)S(=O)(=O)c1ccc2ccccc2c1
  -1	-8
32) CN1CCC(NC(=O)C2(C)CCN2Cc2ccc(-c3ccccc3)o2)CC1 (stereo unspecified)
  7	3
33) COc1ccc(CN(Cc2ccccc2F)CC(O)Cc2ccccc2)cc1 (stereo unspecified)
  0	7
34) COc1ccc(Cl)cc1-c1cccc(-n2cncc2C(=O)NC(C)CCC(C)C)c1 (stereo unspecified)
  0	-3
35) CC12CC3CC(C)(C1)CC(C(=O)N1CCN(CCOCCO)CC1)(C3)C2
  6	1
36) Cc1ccccc1CCN1CCCC(CN(C)C(=O)/C=C/c2cccnc2)C1 (stereo unspecified)
  13	5
37) CN(CCOc1ccc(Cl)cc1)S(=O)(=O)c1ccc(N2CCCC2=O)cc1
  4	1
38) Cc1nn(C(=O)/C=C/c2ccccc2)c(C)c1Sc1ccc([N+](=O)[O-])cc1
  3	8
39) O=C(NCc1ccccn1)C(C1CCCC1)N1CCN(C(=O)COCc2ccccc2)CC1 (stereo unspecified)
  -7	0
40) C=CCn1c(N)c(C#N)c2nc(C#N)c(C#N)nc21
  5	3
41) CC1CCC2(CC1)NC(=O)N(CN(CCC#N)CCC#N)C2=O (stereo unspecified)
  -3	-7
42) CC(C)C(=O)N1CCN(C(=O)c2cn(Cc3ccccc3)nc2-c2ccccc2)CC1
  7	7
43) O=C(N[C@H]1CCCCNC1=O)c1cc(Cn2ccc3ccccc32)[nH]n1
  1	-2
44) CCOC(=O)C1(Cc2ccccc2Cl)CCN(C(=O)c2ccncc2)CC1
  4	3
45) O=C(CSc1nc(=O)n(Cc2cccnc2)c2c1CCC2)Nc1cccc([N+](=O)[O-])c1
  1	-2

Two entries from above, reformatted.
| no. | canonical_smiles | NPYLR7 agonist | NPYLR7 agonist max-min |
| --- | --- | --- | --- |
| 36 | Cc1ccccc1CCN1CCCC(CN(C)C(=O)/C=C/c2cccnc2)C1 (stereo unspecified) | 13 | 5 |
| 37 | CN(CCOc1ccc(Cl)cc1)S(=O)(=O)c1ccc(N2CCCC2=O)cc1 | 4 | 1 |

Fetched by compound from the list above, 5 records:
The line under a structure holds: NPYLR7 agonist	NPYLR7 agonist max-min
40) C=CCn1c(N)c(C#N)c2nc(C#N)c(C#N)nc21
  5	3
41) CC1CCC2(CC1)NC(=O)N(CN(CCC#N)CCC#N)C2=O (stereo unspecified)
  -3	-7
34) COc1ccc(Cl)cc1-c1cccc(-n2cncc2C(=O)NC(C)CCC(C)C)c1 (stereo unspecified)
  0	-3
31) CCN(CC(=O)Nc1cc(-c2ccccc2)nn1-c1ccc(F)cc1)S(=O)(=O)c1ccc2ccccc2c1
  -1	-8
33) COc1ccc(CN(Cc2ccccc2F)CC(O)Cc2ccccc2)cc1 (stereo unspecified)
  0	7

Continuation.
The line under a structure holds: NPYLR7 agonist	NPYLR7 agonist max-min
46) COc1ccc(CCNS(=O)(=O)c2cc(Cl)ccc2Cl)cc1OC
  4	0
47) Cc1ncsc1CCN(C)C(=O)CCCn1nnnc1CN1CCc2ccccc2C1
  2	1
48) COc1ccc(CCN(C)C(=O)CCCCSc2nnc(-c3ccco3)n2-c2cccc(C)c2)cc1OC
  16	21
49) O=C(C(=NNc1ncnc2sc3c(c12)CCCC3)c1ccco1)c1ccco1
  6	2
50) C#CCn1c(O)c(N=NC(=O)CNC(=O)c2ccccc2Br)c2ccccc21
  -10	-12
51) COc1ccccc1Nc1cc(C)nc(-n2cc([N+](=O)[O-])cn2)n1
  4	4
52) COCCCN(CC(=O)N1CCc2sccc2C1c1ccc(Cl)cc1)S(=O)(=O)c1ccc([N+](=O)[O-])cc1 (stereo unspecified)
  -4	6
53) CC(=O)Nc1sc2c(c1C(=O)Nc1ccccc1C)CCC(C)C2 (stereo unspecified)
  3	3
54) O=c1c2ccccc2cnn1CN(Cc1ccccc1C(F)(F)F)C1CC1
  6	4
55) Clc1nsc(NC2CCCCC2)n1
  -4	-3
56) CCOc1ccc(-c2ccnc(N3CCN(C(=O)CCc4ccccc4)CC3)n2)cc1
  3	9
57) CCNc1ncc(C(=O)N2CCCCC2c2cccnc2)cn1 (stereo unspecified)
  26	12
58) Cc1noc(C)c1CC(=O)N1CCCC(Nc2ccc3c(c2)OCO3)C1 (stereo unspecified)
  21&-3	8&-2
59) CS(=O)(=O)c1ccc(Oc2ccc(F)c(F)c2)c(S(C)(=O)=O)c1
  20	16
60) CCc1nc2n(n1)C(=O)C(C(c1ccccc1F)N1CCC(C(N)=O)CC1)S2 (stereo unspecified)
  -1	16
61) CC1(C(=O)NS(=O)(=O)c2cccs2)CCN1C(=O)C1CC1 (stereo unspecified)
  1	1
62) Cc1sc(NC(=O)c2ccc(C#N)cc2)nc1-c1ccccc1
  14	14
63) O=C(NCC1CCCO1)c1cc(NC(=O)C2C[C@H]2c2ccccc2)ccc1N1CCC(Cc2ccccc2)CC1 (stereo partly specified)
  -10	-7
64) CCOC(=O)C1CCN(C(c2ccc(Br)cc2)C2Sc3nc(C)nn3C2=O)CC1 (stereo unspecified)
  3	2
65) Cc1cnc2ccccc2c1N1CCN(CC(F)(F)F)CC1
  -1	-4
66) COc1ccc(C2CC(C(F)(F)F)n3ncc(C(=O)NC(C)(C)C)c3N2)cc1OC (stereo unspecified)
  -6	-13
67) COc1cc(CC(=O)N(C2CC2)C(C)c2ccco2)cc(OC)c1OC (stereo unspecified)
  -2	-3
68) CC1CCCCN1CC(=O)Nc1ccc(F)c(NC(=O)C2Cc3cc(Cl)ccc3O2)c1 (stereo unspecified)
  4	-2
69) COc1ccc(C2(CNc3ncnc4c3CCNC4)CCCC2)cc1
  7	-7
70) COc1ccc(C(=O)N(Cc2ccccc2)Cc2cc(NC(=O)c3cccc(F)c3)ccc2N(C)C)cc1
  16	20
71) O=C(CSc1nc(C(F)(F)F)cc(=O)[nH]1)Nc1ccc2c(c1)OCCO2
  2	1
72) CCn1cc(C(CC(=O)N2CCN(C/C=C/c3ccccc3)CC2)c2ccc3c(c2)OCO3)c2ccccc21 (stereo unspecified)
  18	22
73) Cc1ccc(C)c(OCCSc2nc3ccccc3n2CC(=O)N2CCOCC2)c1
  -4	1
74) Cn1cc(-c2nc(C(=O)NCCCNC3CCCCC3)cs2)cn1
  -1	23
75) CCN(CCOc1ccccc1)C(=O)C1CCC(O)CC1 (stereo unspecified)
  -3	-12

Grouped by structure: the compounds so far with an NH in an aromatic ring.
The line under a structure holds: NPYLR7 agonist	NPYLR7 agonist max-min
27) CCCCN(C(=O)CCl)c1c(N)n(CCC)c(=O)[nH]c1=O
  -6	-12
43) O=C(N[C@H]1CCCCNC1=O)c1cc(Cn2ccc3ccccc32)[nH]n1
  1	-2
71) O=C(CSc1nc(C(F)(F)F)cc(=O)[nH]1)Nc1ccc2c(c1)OCCO2
  2	1

Later entries:
The line under a structure holds: NPYLR7 agonist	NPYLR7 agonist max-min
76) O=C(c1cc(F)ccc1F)C1CCCN(Cc2cccc(C(F)(F)F)c2)C1 (stereo unspecified)
  6	1
77) CNC(=O)C1CCN(c2nc3ncn(CC(=O)Nc4cccc(C)c4C)c(=O)c3s2)CC1
  5	5
78) CCCC1(c2ccccc2)NC(=O)N(CC(=O)c2cccc(OC)c2)C1=O (stereo unspecified)
  17	6
79) CC(C)CCNS(=O)(=O)c1cccc2nsnc12
  10	8
80) CC(C)c1cccc(-c2nc3c(N4CCN(C)CC4)nccc3[nH]2)c1
  -5	-8
81) COc1ccc(C(=O)Nc2nnc(C)s2)cc1[N+](=O)[O-]
  2	1
82) Cc1nc(-c2ccccc2)sc1C(=O)NCCN1CCCCCC1
  6	2
83) CC(=O)Nc1ccc(N2C(=O)CSC2c2cccc(Br)c2)cc1 (stereo unspecified)
  -5	-11
84) COc1ccc(CCN(C)C(=O)c2cc3n(n2)CCN(Cc2c(Cl)cccc2Cl)C3=O)cc1OC
  13	22
85) CC(C)COC1CCN(CCS(N)(=O)=O)C1 (stereo unspecified)
  -1	-6
86) CCNC(=O)N(C)c1c(CC)nc2ccc(C(=O)N(C)Cc3ccco3)cn12
  -3	30
87) CN(CCCOc1ccccc1)CC(=O)NC(=O)NC(C)(C)C
  2	2
88) CSc1ncccc1C(=O)NCCc1cccs1
  -8	2

Only part of the results is shown; count on the stated rates, not on these rows.
